# Screening results deposited in PubChem by several laboratories.
# Ecoli growth: E. coli growth inhibition | Escherichia coli growth, OD600, 23 h; active compounds read low | OD600 absorbance (test concentration not listed) | hit rate 0.21% among 330,000;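 active = OD600 absorbance below the run mean of sample wells minus 3.6 SD, in any replicate, cut at about 0.56 in these data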;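 also: stock transfer was 300 nL into about 60 µL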
# B2AR ag: activates human beta-2 adrenergic receptor causing internalization. Am2.2-beta2AR cells, FAP receptor internalization, flow cytometry; reference of the scale not given here. response, % (concentration not given with the values). hit rate 0.43% among 340,000. AID 504454;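 active = response above a set limit, near 3 SD of response in nonfluorescent compounds, cut at about 42% in these data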;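 also: stock transfer was 100 nL into about 11 µL; a reference agonist was the positive control; negative values mostly stem from fluorescent compounds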
# Target sequence (P07550 whole entry, looked up): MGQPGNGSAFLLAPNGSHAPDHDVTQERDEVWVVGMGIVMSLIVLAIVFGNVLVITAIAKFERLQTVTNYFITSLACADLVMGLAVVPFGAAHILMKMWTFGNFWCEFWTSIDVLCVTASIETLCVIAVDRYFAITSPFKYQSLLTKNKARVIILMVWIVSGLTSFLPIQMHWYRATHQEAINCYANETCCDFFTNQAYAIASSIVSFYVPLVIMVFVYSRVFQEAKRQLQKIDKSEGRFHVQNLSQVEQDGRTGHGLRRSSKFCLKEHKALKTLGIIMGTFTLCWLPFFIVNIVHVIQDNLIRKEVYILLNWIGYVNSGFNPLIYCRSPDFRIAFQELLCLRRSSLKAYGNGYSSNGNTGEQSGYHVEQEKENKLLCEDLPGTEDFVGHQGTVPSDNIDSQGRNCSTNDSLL
# Vif TR-FRET: HIV-1 Vif–A3G interaction blockers – biochemical, TR-FRET, GST-Vif 1-94, biotin-A3G peptide, dose response retest, primary screen (AID 1117319). inhibition, %; hits with a dose series show IC50 in µM. TR-FRET GST-Vif / biotin-A3G peptide binding; higher % means a stronger effect; test concentration not given here; strong numbers were not always called active. hit rate 0.57% among 260,000;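 active = above the screen mean plus three standard deviations and confirmed in dose response; inconclusive = results disagree or hit not tested in dose response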;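 also: Vif residues 1-94 fused to GST binding biotinylated APOBEC3G peptide 110-148; 0% = full assay without inhibitor and 100% = GST in place of GST-Vif; retest series ran down from 100 µM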
# LANA-H2A inh: blocks KSHV LANA binding to histone H2A/H2B. Q9QR71. cell-free LANA-H2A/H2B peptide, fluorescence polarization. inhibition, % (test concentration not listed). hit rate 0.6% among 320,000. AID 2629; in the data active = inhibition mostly above about 10%, no sharp cut-off; inactive = mostly below about 6.7%;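 also: stock transfer was 7.5 nL into about 10 µL; 0% = median of vehicle wells and 100% = median of positive control wells; one replicate is shown; the record names a cut of 25% in any replicate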
# HNF4A DNA FP: change in binding of human HNF4 alpha to DNA; HNF4a-FITC DNA binding, fluorescence polarization, 1 h; AID 1224865; hit rate 0.3% among 360,000; activity change, % at 10 µM; P41235; in the data active = activity change above about 30%, passing the limit was not always enough;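 also: controls were the assay level and a saturating level of protein; the project sought stronger binding though the title names inhibitors; some compounds called inactive have numbers as strong as hits; positive values seem to mean higher polarization but the record does not say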
# Target sequence (P41235 whole entry, looked up): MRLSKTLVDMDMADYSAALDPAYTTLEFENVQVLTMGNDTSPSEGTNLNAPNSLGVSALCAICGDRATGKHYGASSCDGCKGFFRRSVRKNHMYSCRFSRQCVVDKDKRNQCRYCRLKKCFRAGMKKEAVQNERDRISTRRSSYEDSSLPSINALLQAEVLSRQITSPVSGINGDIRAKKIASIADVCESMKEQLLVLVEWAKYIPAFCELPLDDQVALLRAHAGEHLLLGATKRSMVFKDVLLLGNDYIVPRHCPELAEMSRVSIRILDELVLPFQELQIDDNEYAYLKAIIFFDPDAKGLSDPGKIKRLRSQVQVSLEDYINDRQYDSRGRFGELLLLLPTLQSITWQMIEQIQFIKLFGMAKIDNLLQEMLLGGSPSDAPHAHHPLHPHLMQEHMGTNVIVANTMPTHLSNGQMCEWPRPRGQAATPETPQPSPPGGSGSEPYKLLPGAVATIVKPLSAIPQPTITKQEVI
# Bfl-1 A1 inh: inhibitors of the anti-apoptotic protein A1, read as caspase activation; MEF A1-2A-BIM cells, Caspase-Glo 3/7 luminescence, 3 h; percent of clofoctol response, vehicle zero; caspase activation, % (test concentration not listed); hit rate 0.066% among 330,000; AID 2462;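 active = over half of replicate activation scores above 10%, or exactly half above 10 with the replicate mean above 10; inconclusive = replicate mean below 10 yet half the replicates above 10; inactive = over half of replicates below 10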;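 also: wells of about 30 µL received 50 nL stock; many hits fall short of the cut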
# UCH37 inh: human UCH37 deubiquitinating enzyme inhibition; Q9Y5K5; purified proteasome/UCH37, Ub-AMC cleavage fluorescence; inhibition, % (no concentration beside the values); hit rate 0.33% among 330,000;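 active = mean of two replicates above 20%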;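 also: 0% = compound-free wells with enzyme and 100% = wells lacking proteasome; stock transfer was 100 nL into about 20 µL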
#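 Material: Human UCH37 enzyme supplied as purified proteasome complex | Schedule: 30 min preincubation with enzyme, 25 min cleavage at room temperature | Detection: AMC fluorescence 355/460 nm | Measure: % inhibition of Ub-AMC cleavage fluorescence | Controls: Wells without proteasome as full block, compound-free enzyme plus substrate as uninhibited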
# * = called active by the depositor; i = inactive; ? = inconclusive; · = not tested or not shown; & = joins results of further samples.
SMILES,Ecoli growth,B2AR ag,Vif TR-FRET,LANA-H2A inh,HNF4A DNA FP,Bfl-1 A1 inh,UCH37 inh
N#C/C=C(/N)c1ccc(Br)cc1,0.71,-12,-2%,-0.6,0.2,-0.6,3.1
CCCC(=O)N/C(N)=N/c1nc(C)c2ccccc2n1,0.57,-16,-12%,1.0,-3.4,1.1,-0.7
COCc1cc(C)nc2sc(C(=O)NN)c(-n3cccc3)c12,0.73,-4,-1%,-1.0,-4.0,-0.3,5.7
CCOc1ccc(CC(=O)N2N=C(C)CC2(O)C(F)(F)F)cc1 (stereo unspecified),0.66,-3,?,-2.1,-1.5,0.2,3.0
NC(=S)NNc1c(F)c(F)c(F)c(F)c1F,0.7,-4,·,5.5,-1.5,0.9,1.2
COc1ccc(-c2[nH]c(-c3ccc(C)cc3)nc2SCC(=O)NC2CCCC2)cc1,0.73,7,·,1.1,-1.6,-1.3,-4.0
Cc1ccccc1NC(c1cccc(Cl)c1)c1nnnn1C1CCCCC1 (stereo unspecified),·,-1,-4%,1.0,4.1,0.2,-1.3
CS(=O)(=O)N1CCC(C(=O)Nc2cccc([N+](=O)[O-])c2)CC1,0.67,3,?,5.5,0.3,-0.2,3.7
CSCCC(NC(=O)c1ccccc1Br)C(=O)NNC(=O)c1cc(C)oc1C (stereo unspecified),0.68,5,·,-0.4,4.4,0.7,-0.1
CNC(=S)N1CCc2cc(OC)c(OC)cc2C1COc1ccc(OC)cc1 (stereo unspecified),0.71,-12,3%,-2.7,0.4,-0.1,3.9
CCN(CC)C(=O)CSc1nnc(CNc2ccc(F)cc2)o1,0.72,0,9%,2.6,-2.0,-0.5,1.8
CCC(c1nnc(SCC(=O)Nc2cccnc2Cl)n1-c1ccccc1)N(C)C (stereo unspecified),0.66,6,2%,-6.2,-5.2,0.3,1.0
CNC(=O)CSc1nnc(-c2ccccc2)n1C,0.67,-1,-1%,1.5,3.2,0.2,0.3
Cc1cc(C)c(C)c(OCCN2CC(C)OC(C)C2)c1 (stereo unspecified),0.73,1,·,-0.4,4.3,0.9,1.6
CC(=O)NNC(=O)CCn1nnc(-c2ccc(Cl)cc2)n1,0.66,-2,·,-0.1,0.5,1.3,4.8
Cc1cnc(NC(=O)C2CCCC2)s1,0.69,3,1%,1.6,-0.9,-0.7,31*
O=C(N/N=C/c1cccc(O)c1)c1cc(-c2ccccc2)nc2ccccc12,·,-5,-3%,-3.1,-0.5,0.2,·
CC(C)Oc1ccc(C(=O)Nc2cccc3cccnc23)cc1,0.65,-3,-4%,5.8,1.6,-0.3,0.5
COc1ccc([C@@H]2OC2(C(N)=O)C(N)=O)cc1,0.73,7,-3%,0.1,-1.1,-0.2,5.0
COc1cc2c(cc1OC)CN(C(=S)Nc1ccc(Cl)cc1)CC2,0.67,2,-7%,-7.4,2.0,0.7,5.6
COc1cc(CN(CCN(C)C)Cc2ccccc2)ccc1OCc1ccccc1,0.62,16,·,9.6,-8.0,0.8,5.1
C[C@H]1CN([C@@H](C)CO)C(=O)c2cccc(NS(=O)(=O)c3cn(C)cn3)c2O[C@H]1CN(C)S(C)(=O)=O,·,-4,·,6.0,-0.5,0.7,5.5
CC(C)NC(=O)C(=O)NNC(=O)CCc1ccccc1,0.68,-3,·,10,-2.3,0.0,-1.9
CCC(O)CNC(=O)NC(=C(Cl)Cl)c1ccc(C)c(F)c1 (stereo unspecified),0.71,6,0%,-3.5,-0.1,1.0,1.4
NC(=O)c1ccccc1NS(=O)(=O)c1ccccc1,0.69,1,17%,-3.7,0.3,-0.4,-21
Cc1ccc(S(=O)(=O)NCC2CCC(C(=O)NCCCN3CCOCC3)CC2)cc1 (stereo unspecified),0.73,-3,11%&-6%,6.1,-3.3,-0.1,2.3
CC1(c2ccc3c(c2)OCO3)NC(=O)N(CC(=O)Nc2ccc(N3CCOCC3)cc2)C1=O (stereo unspecified),0.74,-5,8%,1.4,2.2,-0.6,2.8
O=C1CC(C(=O)Nc2cc(Cl)ccc2Cl)n2ncnc2N1 (stereo unspecified),·,1,6%,-0.5,3.1,-0.3,·
CNC(=O)CSc1nc2cc(S(=O)(=O)Nc3ccc(OC)cc3)ccc2o1,0.7,-3,·,4.0,3.6,0.0,1.1
CCc1cccc(C)c1Nc1nc2ccccc2n2cnnc12,0.72,6,-2%,0.2,2.7,3.0,-0.9
CCCOc1cccc(C(=O)N2CCN(C(=O)C3CCCO3)CC2)c1 (stereo unspecified),0.66,-15,·,1.3,-2.6,1.4,0.1
COc1ccc2oc(C(=O)OCC(=O)N3CCC(C)CC3)c(C)c2c1,0.71,14,3%,-25,-1.1,1.8,-86
CC(C)(CNC(=O)c1ccccc1F)CNC(=O)c1ccccc1F,0.71,-1,·,2.1,1.9,0.3,2.3
CC(C)NC(=O)COc1ccc2c(c1)C(=O)CC(C)(C)O2,0.69,-8,-4%,0.7,2.1,0.3,i
CC(=O)COc1ccc2c(-c3ccccc3)cc(=O)oc2c1C,0.61,-1,·,-1.1,-2.9,-0.6,-2.0
O=c1cc(-c2ccc(O)c(O)c2)oc2cc(O)c([C@@H]3O[C@H](CO)[C@@H](O)[C@H](O)[C@H]3O)c(O)c12,·,17,·,-1.3,-1.7,1.0,5.3
Cn1cccc1C(=O)OCc1cc(-c2ccco2)on1,0.64,2,·,4.3,1.8,-2.7,4.3
CC(C)(C)NC(=O)c1cccc2c1OC(C)(C)C2,0.7,2,-10%,-4.2,2.0,0.6,0.8
CCOC(=O)Cc1csc(N/N=C/c2ccccc2)n1,·,3,-3%,-1.9,3.2,-1.9,·
COc1ccc2c(c1)[C@H]1[C@H](CO2)[C@H](c2ccccc2)[C@]2(C)C(=O)Nc3cc(C)ccc3C(=O)N12,·,-2,·,2.3,-1.7,-0.1,·
CCC(=O)c1ccc(OCC(=O)Nc2cccc(S(=O)(=O)N(C)c3ccccc3)c2)cc1,0.69,9,2%,0.2,0.6,0.4,2.8
COC(=O)C(C(C)=O)C1=C/C(=N\S(=O)(=O)c2ccc(C)cc2)c2ccccc2C1=O (stereo unspecified),·,11,10%,-4.4,16,-1.2,·
O=C(Nc1ccccc1)C(=O)Nc1cccnc1,0.69,-4,-8%,-1.6,1.3,-7.0,1.2
O=C1c2cccnc2C(=O)N1C1CCCCC1,0.71,7,?,1.3,3.6,2.2,4.0
CC(NC(=O)Nc1ccccc1F)C(C)(C)C (stereo unspecified),0.65,1,3%,-0.5,-6.0,0.1,1.6
CCn1c(SCC(=O)N/N=C/c2c[nH]c3ccccc23)nnc1-c1ccc(C(C)(C)C)cc1,·,8,1%,-1.1,-0.7,-0.1,·
C=CCn1c(SC(C)C(=O)NCc2ccc3c(c2)OCO3)nc2scc(-c3ccccc3)c2c1=O (stereo unspecified),0.69,4,17%,6.7,-1.9,-0.2,1.3
C/C(=N\Nc1ccc(Cl)c(C(=O)O)c1)c1ccc2c(c1)OCO2,·,-3,7%,4.0,-4.0,-0.8,·
O=C(NNc1ccccc1F)C1CCC1,0.7,-2,7%,2.8,1.4,0.4,0.7
O=C(NCc1nc(-c2ccccc2)no1)Nc1ccc(F)cc1,0.67,-18,·,3.2,-0.7,-0.7,1.5
COc1cc(/C=C(\C#N)c2nnc(N3CCOCC3)n2-c2ccccc2)ccc1O,0.7,-4,1%,-2.4,-0.8,0.2,9.2
CCN(CC)S(=O)(=O)c1ccc(C(=O)NC(=S)N(CCC#N)Cc2cccnc2)cc1,0.69,-4,-6%,-0.5,-0.4,-0.2,-0.8
Nc1ccc(-c2cnc(-c3ccc(N)cc3)nc2)cc1,0.66,0,27%,-0.8,-1.8,-3.0,-28
Cc1ccnc(N2CCC(C(=O)Nc3ccc4c(c3)OCCO4)CC2)n1,0.67,-5,·,-2.9,0.6,0.1,-6.6
NC1=NC(=Nc2cccc(Cl)c2)c2ccccc21,0.65,0,4%,5.1,-2.0,0.9,3.1
CCc1ccc(NC(=O)CN(CC(=O)Nc2ccc(CC)cc2)CC(C)O)cc1 (stereo unspecified),0.63,-19,-12%,2.3,-1.0,-0.4,6.3
CN(C)S(=O)(=O)c1ccc(C(=O)OCC(=O)c2csc(N3CCCCC3)n2)cc1,0.73,6,-60%,4.7,-2.7,0.9,5.9
O=C(Nc1cc(Sc2ccccn2)cc([N+](=O)[O-])c1)c1cccc(Cl)c1,0.64,-7,1%,3.7,4.4,-0.9,4.8
CCNC(=O)O/N=C(\C)c1sc(-c2ccccc2)nc1C,·,-15,3%,-3.2,-2.6,-6.4,·
O=C(CNC(=O)c1ccc(Br)cc1)OCC(=O)c1ccccc1,0.7,2,·,6.3,0.3,-0.1,1.9

# Profiles as entered above.
# Cc1cc(C)c(C)c(OCCN2CC(C)OC(C)C2)c1 (stereo unspecified) as listed: Ecoli growth: 0.73; B2AR ag: 1; Vif TR-FRET: ·; LANA-H2A inh: -0.4; HNF4A DNA FP: 4.3; Bfl-1 A1 inh: 0.9; UCH37 inh: 1.6
# O=C(NCc1nc(-c2ccccc2)no1)Nc1ccc(F)cc1 as listed: Ecoli growth: 0.67; B2AR ag: -18; Vif TR-FRET: ·; LANA-H2A inh: 3.2; HNF4A DNA FP: -0.7; Bfl-1 A1 inh: -0.7; UCH37 inh: 1.5

# Later entries
SMILES,Ecoli growth,B2AR ag,Vif TR-FRET,LANA-H2A inh,HNF4A DNA FP,Bfl-1 A1 inh,UCH37 inh
CC(C)(C)NC(=O)NC(=O)COC(=O)c1cccc(OC(F)F)c1,0.71,-4,6%,2.3,0.0,0.4,5.9
O=C(Nc1ccc(C(=O)N2CCCCC2)cc1)C1CCCCC1,0.72,-3,-2%,6.7,-3.5,-1.3,1.1
Cn1nnnc1SCC(=O)NCc1cc([N+](=O)[O-])ccc1O,0.68,-6,·,7.8,2.5,-0.7,10
COc1ccc(COCC(O)CN2CCCCC2)cc1OC (stereo unspecified),0.71,7,7%,4.1,1.6,0.7,1.6
CCN(CC)CCNCc1ccc(OCc2ccc(Cl)nc2)c(OC)c1,0.69,-6,6%,-1.1,2.7,1.0,2.3
CN(C)c1ccc(NC(=O)CSc2nc3ccccc3c(=O)n2C2CCCCC2)cc1,0.79,-6,22µM*,3.5,-1.0,-0.4,3.5
CC1C/C(=N/O)C(C)CN1 (stereo unspecified),·,12,7%,0.5,2.7,0.7,·
COC(=O)CN1C(=S)N(c2ccc(OC)cc2)C(=O)/C1=C/c1ccc(OC)cc1,0.69,8,0%,-0.4,4.7,-0.5,1.2
Cc1c(CCC(=O)N[C@@H](C)C(=O)O)c(=O)oc2cc3occ(-c4ccccc4)c3cc12,0.64,-2,5%,-3.0,0.3,0.5,-15
Cc1cc(C)cc(N(C(=O)CCC(=O)Nc2ccccn2)C(C(=O)NC(C)C)c2ccc(O)cc2)c1 (stereo unspecified),0.68,·,2%,-4.8,·,0.0,1.7
Cc1cc(C)c(C)c(Cn2c(CO)nc3ccccc32)c1C,0.69,0,3%,4.7,-10,-0.3,2.0
O=c1c2c(nc3nc(COc4ccccc4)[nH]n13)CCC2,0.67,-3,5%,-3.7,-0.1,-0.5,1.1
O=C(OCC(=O)N1CCC(Cc2ccccc2)CC1)c1ccccc1,0.72,1,14%,·,-0.9,-2.4,4.7
CCN(CCO)C(=O)CC1C(=O)NCCN1Cc1c(F)cccc1Cl (stereo unspecified),0.68,-4,2%,3.4,4.2,-0.7,6.7

# 4 compounds out of the list above, arranged by the value under LANA-H2A inh, ascending.
Compound	LANA-H2A inh
CC1C/C(=N/O)C(C)CN1 (stereo unspecified)	0.5
CCN(CCO)C(=O)CC1C(=O)NCCN1Cc1c(F)cccc1Cl (stereo unspecified)	3.4
CN(C)c1ccc(NC(=O)CSc2nc3ccccc3c(=O)n2C2CCCCC2)cc1	3.5
COc1ccc(COCC(O)CN2CCCCC2)cc1OC (stereo unspecified)	4.1
